PINK1 modulator = A Quantitative High throughput Screen to Identify Chemical Modulators of PINK1 Expression; PINK1 immunofluorescence, high-content cytometry, 24 h; Potency, µM (top dose mostly 76.6 µM), for inactives: at the top dose activation (PINK1 increase), usual class: activators; 410,000 compounds, 0.2% hits; AID 624263, 2012; active = well fitted activation curve with a large enough effect; inconclusive = small, poorly fitted or top-dose-only effect; inactive = flat fitted curve, though single readings scatter; cell line not stated here;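 also: potency is read from the fitted curve at half-maximal effect; % of control where 0% means no effect; nearly all actives have a fitted effect of over 65% in size; a mitochondrial uncoupler was the plate control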
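Compound titrations (5 concentrations, 24 h) on a stable cell line; DMSO and CCCP controls. Endpoint: fixed-cell PINK1 immunofluorescence with mitochondrial, cell and nuclear markers, scanned by microplate cytometer.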
D2 potentiator = Beta-Arrestin HTS for Positive Allosteric Modulators of the Human D2 Dopamine Receptor: Potentiators; 360,000 compounds, 0.23% hits; potentiation, % (no concentration beside the values); AID 624464, 2012; DiscoveRx D2 beta-arrestin cells, luminescence, 90 min; 100% = 57 uM dopamine signal; active = potentiation of 50% or more; inconclusive = 30% to 50%; inactive = 30% or less;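 also: compound concentration not given in the record; tested on top of an EC20 dose of dopamine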
Target sequence (P14416 whole entry, looked up): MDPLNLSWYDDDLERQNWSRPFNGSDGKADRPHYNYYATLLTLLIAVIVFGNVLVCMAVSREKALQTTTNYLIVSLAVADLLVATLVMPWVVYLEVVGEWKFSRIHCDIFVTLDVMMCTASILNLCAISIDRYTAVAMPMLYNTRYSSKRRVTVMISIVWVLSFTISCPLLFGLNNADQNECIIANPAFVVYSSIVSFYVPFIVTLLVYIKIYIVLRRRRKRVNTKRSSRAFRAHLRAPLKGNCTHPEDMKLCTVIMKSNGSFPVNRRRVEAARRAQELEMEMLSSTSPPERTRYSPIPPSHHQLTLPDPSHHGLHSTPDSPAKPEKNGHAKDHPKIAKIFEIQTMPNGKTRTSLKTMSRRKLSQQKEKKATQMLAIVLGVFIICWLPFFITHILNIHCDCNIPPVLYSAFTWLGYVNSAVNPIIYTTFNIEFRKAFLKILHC
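PathHunter beta-arrestin assay in DiscoveRx D2 cells. Compounds were added with an EC20 of dopamine (50 nM final) for 90 min at 37 deg C. Luminescence was read 1 h after detection reagent, with 57 uM dopamine as the EC100 control.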
TRPML1 ag = qHTS for Agonists of the Human Mucolipin Transient Receptor Potential 1 (TRPML1) | activation, % (concentration not given with the values) | Mucolipin-1 (Homo sapiens), Q9GZU1 | AID 624414, 2012 | TRPML1-expressing cells, Ca2+ dye fluorescence, FDSS; host cell line not named in the record; reference of the full effect not given here | 410,000 compounds, 0.12% hits; in the data active = activation above about 50%; inconclusive = about 30% to 50%; inactive = below about 30%; also: 0% is about no effect; the text of the record puts the active cut at 80%
Target sequence (Q9GZU1 whole entry, looked up): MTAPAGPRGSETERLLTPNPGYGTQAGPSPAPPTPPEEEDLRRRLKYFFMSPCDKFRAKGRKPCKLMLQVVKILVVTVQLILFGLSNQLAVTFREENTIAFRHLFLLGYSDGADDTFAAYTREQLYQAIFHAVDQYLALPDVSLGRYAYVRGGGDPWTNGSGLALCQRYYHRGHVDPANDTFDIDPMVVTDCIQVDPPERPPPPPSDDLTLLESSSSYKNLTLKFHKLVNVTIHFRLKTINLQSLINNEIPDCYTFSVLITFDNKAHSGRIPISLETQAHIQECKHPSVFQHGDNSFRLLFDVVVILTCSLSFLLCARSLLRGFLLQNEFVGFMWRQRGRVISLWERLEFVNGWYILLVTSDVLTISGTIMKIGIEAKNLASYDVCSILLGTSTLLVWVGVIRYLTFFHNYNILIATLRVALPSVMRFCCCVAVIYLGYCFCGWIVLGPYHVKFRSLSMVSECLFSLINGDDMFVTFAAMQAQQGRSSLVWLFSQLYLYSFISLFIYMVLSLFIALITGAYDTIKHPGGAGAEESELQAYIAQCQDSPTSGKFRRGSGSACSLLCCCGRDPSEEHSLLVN
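Tetracycline-induced TRPML1-DL cells are seeded and incubated overnight before loading with a no-wash Ca2+ dye and quencher. Agonist activity is taken from the 110 s fluorescence read following compound pin-transfer on an FDSS, before EC80 54-4 challenge.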
Six1-Eya2 inh = qHTS Assay for Inhibitors of the Six1/Eya2 Interaction | AlphaScreen GST-Six1/His-Eya2 binding, biochemical; active compounds read low; control for the full effect not named in the record | activity change, % (concentration not given with the values) | 360,000 compounds, 0.56% hits | AID 651725, 2012; in the data active = activity change below about -65%; inconclusive = about -30% to -65%; inactive = above about -30%; also: % is scaled to controls: 0 for no effect and ±100 for the full control effect
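Compounds are tested against tagged Six1 and Eya2 proteins bridged by glutathione donor and nickel acceptor beads; after a one-hour incubation at 37 °C without light, AlphaScreen emission is recorded.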
D2 ag = Beta-Arrestin HTS for Positive Allosteric Modulators of the Human D2 Dopamine Receptor: Agonists | AID 624465, 2012 | DiscoveRx PathHunter D2 beta-arrestin, luminescence, 90 min; 100% = 57 uM dopamine signal | D(2) dopamine receptor (Homo sapiens), P14416 | activation, % (test concentration not listed) | 360,000 compounds, 0.084% hits; in the data active = activation above about 40%; inconclusive = about 15% to 40%; inactive = below about 15%; also: compound concentration not given in the record; the text of the record calls up to 30% inactive
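Agonist mode: compounds alone added to overnight-plated D2 PathHunter cells for 90 min at 37 C, with 57 uM final dopamine (EC100) defining full response. Beta-arrestin recruitment detected by chemiluminescent reagent, read after 1 h at ambient temperature.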
CtBP-E1A inh = qHTS Assay for Inhibitors of the CtBP/E1A Interaction; 340,000 compounds, 0.49% hits; AlphaScreen GST-E1A/His-CtBP binding, 1536-well; active compounds read low; control for the full effect not named in the record; CtBP / adenovirus E1A interaction (AlphaScreen); activity change, % (no concentration beside the values); AID 651724, 2012; in the data active means activity change below about -65%; inconclusive means about -30% to -65%; inactive means above about -30%; also: % is scaled to controls: 0 for no effect and ±100 for the full control effect
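In 5 uL wells, 23 nL compound meets equimolar GST-E1A and His-CtBP (5X stock 125 nM each) for 2 h, 37 °C. Beads (5X, 50 ug/mL) then 1 h, 37 °C, dark.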
Numbers without * were called inactive; & = joins results of further samples; [ ] = remark or other dose.

How did CCCc1cc(=O)[nH]c(SC(CC)C(=O)Nc2ccccc2C#N)n1 (stereo not given) do in these assays?
PINK1 modulator: 0.1%; D2 potentiator: -9; TRPML1 ag: 1.1; Six1-Eya2 inh: 6; D2 ag: -0.9; CtBP-E1A inh: -14

Results for COc1ccc(/C(C)=C(\C#N)C(=O)OC(C)C)cc1OC ?
PINK1 modulator: 0.8%; D2 potentiator: -8; TRPML1 ag: 0.7; Six1-Eya2 inh: 7; D2 ag: 1.7; CtBP-E1A inh: 4

How did O=C(c1ccccc1)c1ccc2c(c1)OCCOCCOCCO2 do in these assays?
PINK1 modulator: 1.6%; D2 potentiator: -5; TRPML1 ag: 0.6; Six1-Eya2 inh: 1; D2 ag: -5.1

What do the screens show for `Cc1ccc(S(=O)(=O)N2CCC(C(=O)NCCC3=CCCCC3)CC2)c(C)c1`?
PINK1 modulator: -0.3%; D2 potentiator: -12; TRPML1 ag: -0.2; Six1-Eya2 inh: -5; D2 ag: 6.0; CtBP-E1A inh: -1

Results for O=C(CCCCCn1c(=S)[nH]c2cc3c(cc2c1=O)OCO3)N1CCN(c2ccccc2)CC1 ?
PINK1 modulator: 3.5%; D2 potentiator: -3; TRPML1 ag: 0.9; Six1-Eya2 inh: 3; D2 ag: -6.3; CtBP-E1A inh: 4

What do the screens show for `COc1cc(NC(=O)CCCc2c[nH]c3ccccc23)cc(OC)c1`?
PINK1 modulator: -1.1%; D2 potentiator: -10; TRPML1 ag: 0.2; Six1-Eya2 inh: 8; D2 ag: 3.2

Results for S=c1[nH]nc(-c2cccnc2)n1/N=C/c1ccc(Br)s1 ?
PINK1 modulator: 4.0%; D2 potentiator: -6; TRPML1 ag: -1.1; Six1-Eya2 inh: -3; D2 ag: 0.7; CtBP-E1A inh: 5

What do the screens show for `O=C(Nc1ccc(-c2nc3ncccc3o2)cc1)c1ccco1`?
PINK1 modulator: -1.9%; D2 potentiator: 0; TRPML1 ag: 2.3; Six1-Eya2 inh: -7; D2 ag: -0.6; CtBP-E1A inh: -20

How did Cc1ccc(N2CC(NS(=O)(=O)c3cccs3)CC2=O)cc1 (stereo not given) do in these assays?
PINK1 modulator: 2.3%; D2 potentiator: inconclusive; TRPML1 ag: -1.2; Six1-Eya2 inh: 4; D2 ag: 3.7; CtBP-E1A inh: 6

What do the screens show for `COc1ccccc1NC(=O)Nc1ccccc1C(=O)NCCCN1CCOCC1`?
PINK1 modulator: 0.2%; D2 potentiator: -5; TRPML1 ag: 0.2; Six1-Eya2 inh: 4; D2 ag: 2.0; CtBP-E1A inh: 7

How did CC(C)n1c2ccccc2c2nc3ccccc3nc21 do in these assays?
PINK1 modulator: -0.8%; D2 potentiator: -19; TRPML1 ag: 6.3; Six1-Eya2 inh: 89; D2 ag: -5.9; CtBP-E1A inh: 106

What do the screens show for `Brc1ccc(-c2nc3ccc(Br)cn3c2Cc2ccccc2)cc1`?
PINK1 modulator: 1.2%; D2 potentiator: -15; TRPML1 ag: -0.5; Six1-Eya2 inh: -6; D2 ag: -8.8; CtBP-E1A inh: 4

Results for CCOc1ccc2nc(SCC(=O)NCc3ccco3)sc2c1 ?
PINK1 modulator: 1.5%; D2 potentiator: 1; TRPML1 ag: 0.1; Six1-Eya2 inh: -4; D2 ag: -0.9; CtBP-E1A inh: -1

Results for CNC(=S)NNC(=O)c1cccc(C(F)(F)F)c1 ?
PINK1 modulator: -5.2%[38.3 µM]; D2 potentiator: -18; TRPML1 ag: 0.5; Six1-Eya2 inh: 1; D2 ag: -7.2; CtBP-E1A inh: 4

Results for Cc1ccc(OCC(=O)N2CCC(N3CC(C)CC(C)C3)CC2)cc1 (stereo not given) ?
PINK1 modulator: 3.8%; D2 potentiator: 4; TRPML1 ag: 0.0; Six1-Eya2 inh: 2; D2 ag: 3.6; CtBP-E1A inh: 2

Results for O=C(c1cc2cc(Br)ccc2s1)N1CCOCC1 ?
PINK1 modulator: 0.2%; D2 potentiator: 4; TRPML1 ag: 0.8; Six1-Eya2 inh: 5; D2 ag: 0.2; CtBP-E1A inh: 0

Results for CCOC(=O)N1CCN(C2=C(NS(=O)(=O)c3ccc(C)cc3)C(=O)c3ccccc3C2=O)CC1 ?
PINK1 modulator: 2.5%; D2 potentiator: -19; TRPML1 ag: -0.1; Six1-Eya2 inh: inconclusive; D2 ag: -27

How did Cc1ccc2c(c1)S/C(=C\c1cccc[n+]1C)N2CCO do in these assays?
PINK1 modulator: 1.0%; D2 potentiator: -4; TRPML1 ag: 1.5; Six1-Eya2 inh: 2; D2 ag: -2.5

How did Nc1c(Cl)cnn(-c2ccccc2)c1=O do in these assays?
PINK1 modulator: 1.1%; D2 potentiator: -3; TRPML1 ag: 3.7; Six1-Eya2 inh: 4; D2 ag: -2.5; CtBP-E1A inh: -9

What do the screens show for `Cc1ccc(N(CC(=O)Nc2c(C)n(C)n(-c3ccccc3)c2=O)S(C)(=O)=O)c(C)c1`?
PINK1 modulator: -1.0%; D2 potentiator: -7; TRPML1 ag: -0.1; Six1-Eya2 inh: 8; D2 ag: -3.8

How did CCOC(=O)C1CCN(C(=O)Cn2cc3c(n2)CCC(C)C3)CC1 (stereo not given) do in these assays?
PINK1 modulator: 1.2%; D2 potentiator: 3; TRPML1 ag: -0.3; Six1-Eya2 inh: 0; D2 ag: 2.9; CtBP-E1A inh: 8

How did COc1ccc(N2C(=O)CN=C2Nc2nc(C)cc(C)n2)cc1 do in these assays?
PINK1 modulator: -0.1%; D2 potentiator: -4; TRPML1 ag: -0.1; Six1-Eya2 inh: 1; D2 ag: -0.2; CtBP-E1A inh: -2

Results for O=C(c1c(F)cccc1F)N(Cc1ccccn1)C1CCCC1 ?
PINK1 modulator: -0.9%[38.3 µM]; D2 potentiator: -3; TRPML1 ag: -0.4; Six1-Eya2 inh: -1; D2 ag: -1.4; CtBP-E1A inh: 5

What do the screens show for `COc1ccccc1-c1cc(C(=O)N/N=C\c2cnn(C)c2C)c2ccccc2n1`?
PINK1 modulator: -2.1%; D2 potentiator: -5; TRPML1 ag: 0.0; Six1-Eya2 inh: -21; D2 ag: -6.1; CtBP-E1A inh: -5

What do the screens show for `O=C(Cn1cnc2c(nnn2-c2ccccc2)c1=O)NCCc1ccccc1`?
PINK1 modulator: -1.0%; D2 potentiator: -3; TRPML1 ag: -0.6; Six1-Eya2 inh: 7; D2 ag: -2.0; CtBP-E1A inh: 21

What do the screens show for `O=C(NCCCn1ccnc1)c1ccc2ccccc2c1`?
PINK1 modulator: 0.1%; D2 potentiator: -5; TRPML1 ag: 0.0; Six1-Eya2 inh: 3; D2 ag: -1.2; CtBP-E1A inh: 6

What do the screens show for `CCOC(=O)C1CCN(C(=O)c2ccccc2NC(=O)C2=C(C)OCCS2)CC1`?
PINK1 modulator: 2.3%; D2 potentiator: -10; TRPML1 ag: -0.1; Six1-Eya2 inh: 3; D2 ag: -2.8; CtBP-E1A inh: -3

Results for O=C1CN(C(=O)NCC(=O)N[C@H](C(=O)O)c2ccccc2)c2ccccc2N1 ?
PINK1 modulator: 0.8%; D2 potentiator: -10; TRPML1 ag: -0.1; Six1-Eya2 inh: 10; D2 ag: -0.8; CtBP-E1A inh: 3

Results for CC1CCC(NC(=O)COC(=O)c2ccco2)CC1 (stereo not given) ?
PINK1 modulator: 1.5%; D2 potentiator: -5; TRPML1 ag: -0.4; Six1-Eya2 inh: 3; D2 ag: -3.7

How did COc1cc(OC)cc(C(=O)NC2CCN(CC(=O)Nc3cccc4ccccc34)CC2)c1 do in these assays?
PINK1 modulator: -0.8%; D2 potentiator: -22; TRPML1 ag: 0.6; Six1-Eya2 inh: -6; D2 ag: -1.5; CtBP-E1A inh: -2

The final four compounds of the part before open the next one.
What do the screens show for `CCOC(=O)C1CCN(C(=O)c2ccccc2NC(=O)C2=C(C)OCCS2)CC1`?
PINK1 modulator: 2.3%; D2 potentiator: -10; TRPML1 ag: -0.1; Six1-Eya2 inh: 3; D2 ag: -2.8; CtBP-E1A inh: -3

Results for O=C1CN(C(=O)NCC(=O)N[C@H](C(=O)O)c2ccccc2)c2ccccc2N1 ?
PINK1 modulator: 0.8%; D2 potentiator: -10; TRPML1 ag: -0.1; Six1-Eya2 inh: 10; D2 ag: -0.8; CtBP-E1A inh: 3

Results for CC1CCC(NC(=O)COC(=O)c2ccco2)CC1 (stereo not given) ?
PINK1 modulator: 1.5%; D2 potentiator: -5; TRPML1 ag: -0.4; Six1-Eya2 inh: 3; D2 ag: -3.7

How did COc1cc(OC)cc(C(=O)NC2CCN(CC(=O)Nc3cccc4ccccc34)CC2)c1 do in these assays?
PINK1 modulator: -0.8%; D2 potentiator: -22; TRPML1 ag: 0.6; Six1-Eya2 inh: -6; D2 ag: -1.5; CtBP-E1A inh: -2

How did O=C(NCCn1cccn1)C1CCC(=O)N(CC2CCCCC2)C1 (stereo not given) do in these assays?
PINK1 modulator: -0.3%; D2 potentiator: 18; TRPML1 ag: 1.6; Six1-Eya2 inh: -1; D2 ag: 0.3; CtBP-E1A inh: 4

Results for CSc1c(SCc2ccccc2)cnn(-c2ccccc2)c1=O ?
PINK1 modulator: -0.1%; D2 potentiator: -19; TRPML1 ag: 6.2; Six1-Eya2 inh: 10; D2 ag: -1.2; CtBP-E1A inh: -10

Results for CC1CCN(CCCNC(=O)CN2CCN(Cc3ccc(Cl)cc3)C2=O)CC1 ?
PINK1 modulator: 2.5%; D2 potentiator: -3; TRPML1 ag: 0.3; Six1-Eya2 inh: -3; D2 ag: -4.1; CtBP-E1A inh: 3

What do the screens show for `Cc1cnc(C(=O)OCC(=O)NC2CCCCCCC2)cn1`?
PINK1 modulator: 1.2%; D2 potentiator: -1; TRPML1 ag: 0.3; Six1-Eya2 inh: 8; D2 ag: -1.0; CtBP-E1A inh: -15

Results for O=C(COC(=O)/C=C/c1cccc(Br)c1)NCCC1=CCCCC1 ?
PINK1 modulator: inconclusive; D2 potentiator: -13; TRPML1 ag: 0.7; Six1-Eya2 inh: -2; D2 ag: -2.4; CtBP-E1A inh: -7

How did O=C(Nc1nnc(-c2ccccn2)o1)c1cccc(Cl)c1 do in these assays?
PINK1 modulator: 0.8%; D2 potentiator: -5; TRPML1 ag: -0.2; Six1-Eya2 inh: -25; D2 ag: -9.7; CtBP-E1A inh: -29

What do the screens show for `O=S(=O)(NCc1ccccc1)c1ccc(-c2cnc(C3CC3)o2)cc1`?
PINK1 modulator: 9.6%&11%; D2 potentiator: -8; TRPML1 ag: 1.0&0.1; Six1-Eya2 inh: -1; D2 ag: -0.6

What do the screens show for `CC(C)c1ccc(NC(=O)Cn2cccc2C2=NC(c3ccccc3)CO2)cc1` (stereo not given)?
PINK1 modulator: 11%; D2 potentiator: -4; TRPML1 ag: 2.6; Six1-Eya2 inh: -16; D2 ag: -2.6; CtBP-E1A inh: -1

Rows were taken by chance; 1.3% or so of the library scored in one or more.
